Source: PubChem
Rango complex inh – inhibitors of Rango-importin beta complex formation | Potency, µM (highest dose often 92.2 µM), for inactives: top-dose inhibition of complex formation | actives 0.031% (n = 340,000) | Rango CFP/YFP FRET sensor + importin beta, 45 min | Q14974; active = rising FRET ratio curve, often small or poorly fitted; inconclusive = mostly compound fluorescence or quenching in the first reads; inactive = flat curves in all reads;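 further: potency means the concentration at half of the fitted maximal effect; 0% = DMSO wells and 100% = buffer wells lacking importin beta; nearly all actives have a fitted effect of over 15% in size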
Target sequence (Q14974 whole entry, looked up): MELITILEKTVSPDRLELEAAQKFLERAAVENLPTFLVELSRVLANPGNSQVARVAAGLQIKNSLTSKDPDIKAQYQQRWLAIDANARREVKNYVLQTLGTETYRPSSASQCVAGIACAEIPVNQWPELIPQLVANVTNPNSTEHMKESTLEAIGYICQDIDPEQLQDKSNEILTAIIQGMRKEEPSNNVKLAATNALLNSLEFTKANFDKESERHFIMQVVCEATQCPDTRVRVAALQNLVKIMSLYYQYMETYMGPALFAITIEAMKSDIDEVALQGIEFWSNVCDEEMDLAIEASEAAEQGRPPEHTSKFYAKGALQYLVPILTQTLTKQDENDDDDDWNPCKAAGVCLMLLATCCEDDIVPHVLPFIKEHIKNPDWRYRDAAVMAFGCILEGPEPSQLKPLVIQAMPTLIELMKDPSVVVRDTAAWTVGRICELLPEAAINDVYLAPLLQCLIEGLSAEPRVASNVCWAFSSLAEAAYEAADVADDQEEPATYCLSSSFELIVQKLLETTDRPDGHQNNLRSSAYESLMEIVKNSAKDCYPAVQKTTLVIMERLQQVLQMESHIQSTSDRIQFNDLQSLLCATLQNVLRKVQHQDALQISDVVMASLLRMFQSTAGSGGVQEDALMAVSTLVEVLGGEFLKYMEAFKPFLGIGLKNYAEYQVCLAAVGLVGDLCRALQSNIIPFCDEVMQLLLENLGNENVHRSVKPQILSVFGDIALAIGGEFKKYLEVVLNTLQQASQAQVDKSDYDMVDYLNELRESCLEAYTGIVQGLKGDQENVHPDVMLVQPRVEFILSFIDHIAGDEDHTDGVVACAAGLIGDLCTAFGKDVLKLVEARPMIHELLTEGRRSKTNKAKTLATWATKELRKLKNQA
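FRET biosensor (snurportin 1 IBB flanked by EYFP and cerulean), 50 nM, with compound 5 min, then 0.125 microM importin beta in PBS, 1 mM DTT, 0.02% Tween-20, 0.1% BSA. CFP/YFP ratio read after 45 min at room temperature; pre-read flags interference.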
GLA inh pH 4.5 – alpha-galactosidase A (human) inhibition, pH 4.5; 230,000 tested, under 10 active; P06280; activity change, negative = inhibition, % at 105 µM; purified enzyme, 4-MU-alpha-Gal fluorescence, pH 4.5; inconclusive = small, poorly fitted or top-dose-only inhibition, or a rising curve; inactive = flat fitted curve, though single readings scatter; no compound was filed as active;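 further: 0% = full activity with enzyme and -100% = basal without enzyme; dose as in the result columns while the protocol names 77 µM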
Rango release inh – inhibitors of RanGTP-induced Rango-importin beta complex dissociation. O95149+P62826. Biochemical FRET Rango-importin beta, RanGTP-induced dissociation. Potency, µM (series often up to 46.1 µM), for inactives: at the highest dose activity change, negative = inhibition. actives 0.071% (n = 340,000). AID 540253; active means falling FRET ratio curve, often poorly fitted, with flat reads before Ran was added; inconclusive means other falling curves, or compound fluorescence or quenching; inactive means flat or rising ratio curve;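 further: potency means the concentration at half of the fitted maximal effect; % of control where 0% means no effect; nearly all actives have a fitted effect of over 45% in size; -100% = wells without RanGTP and RCC1; the record marks most hits as doubtful in a second field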
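Compounds sat 5 min at room temperature with 0.1 uM Rango biosensor plus 0.25 uM importin beta, then FRET pre-read. RanGTP-RCC1 (0.6 uM Ran, 2mM GTP, 0.2 uM RCC1) added for 45 min, and the CFP/YFP post-read measured blocked complex dissociation.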
miR-21 reporter – raises the signal of a miR-21 reporter | HeLa miR-21 FLuc reporter, luciferase, 48 h | Potency, µM (series often up to 38.3 µM), without a hit: at the highest dose reporter change, positive = more light | 340,000 tested, under 10 active | AID 2288; active = well fitted rising curve with a large enough effect; inconclusive = small, poorly fitted or top-dose-only effect; inactive = no such curve, though single readings can be large or run the other way;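 further: % of control where 0% means no effect; miR-21 action dims this reporter so a rising signal means less miR-21 action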
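Using DMEM plus 10% FBS, HeLa miR-21-FLuc cells are incubated with test compounds (final up to about 40uM) for 48 hours; firefly luciferase signal is then imaged following reagent-mediated lysis.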
* hit, by the source's call; ? = inconclusive; nt = no result given; & = joins results of further samples. An excerpt; the hit share may differ from the screen's.

SMILES	Rango complex inh	GLA inh pH 4.5	Rango release inh	miR-21 reporter
COc1ccccc1N1CCN(CC(O)COc2ccc(C)cc2C)CC1 (configuration not stated)	0.5%	nt	-11%	1%
O=C(Nc1cccnc1)C1CC(c2ccccc2O)=NO1 (configuration not stated)	-1.5%	-2	7%	-6%
O=C1NC(=O)/C(=C/c2cccc([N+](=O)[O-])c2)N1	0.6%	5	14%	-10%
Cc1nnc(-c2ccc(Cl)cc2)[nH]c1=O	2.9%	0	4%	-2%
Fc1ccc(NC(=S)Nc2ccc(Cl)cc2Cl)cc1	0.1%	-9	2%	-19%
COc1ccc(C(=O)CC(=O)C(=O)Nc2ccccc2OC)cc1	-0.1%	nt	-6%	-5%
CCCCCCOc1ccc(N2C(=O)CC(NCc3ccc(S(N)(=O)=O)cc3)C2=O)cc1 (configuration not stated)	-4.5%	7	37%	2%
COC(=O)CSc1nnc(-c2sc3cc(OC)ccc3c2Cl)n1C	-3.0%	-8	-1%	2%
Cc1ccc(S(=O)(=O)N(Cc2cccc(F)c2)C(=O)N2CCN(C)CC2)cc1	-3.6%	nt	0%	nt
O=C(NC1CCOCC1)C1CCC(=O)N(Cc2cccc(C(F)(F)F)c2)C1 (configuration not stated)	2.6%	nt	18%	0%
C=CCOc1ccc(CNc2ccc3[nH]c(=O)[nH]c3c2)cc1OC	?	-20	?	-11%
COc1ccc(-c2cccc(C(=O)Nc3ccc(OC)c(OC)c3)c2)cc1	-3.3%	-4	8%	-10%
CCOC(=O)C1CCN(C(C)=C2C(=O)c3ccccc3C2=O)CC1	5.4%	3	49%	-2%
Cc1cc(C)c(S(=O)(=O)Nc2cc(C)on2)c(C)c1	1.0%	nt	9%	-6%
CCC(C)N(C(=O)COC(=O)Cc1n[nH]c(=O)c2ccccc12)C1CCS(=O)(=O)C1 (configuration not stated)	-1.2%	6	14%	2%
O=C(O)c1cccc(NC(=O)c2ccccc2NC(=O)c2ccco2)c1	-1.4%	nt	-6%	0%
O=C(N/C(=C/c1ccccc1)C(=O)N1CCCCCC1)c1ccccc1	-1.0%	-2	-11%	-1%
CCN(CC)S(=O)(=O)c1ccc(-c2cc(C(=O)OC)sc2C(F)(F)F)cc1	?	-1	0%	1%
C/C(=N\Nc1ccc(S(=O)(=O)Nc2ccccc2)cc1[N+](=O)[O-])c1ccncc1	nt	4	nt	-1%
Cc1ccc(C)c(OCC(O)CN2CCC(Cc3ccccc3)CC2)c1 (configuration not stated)	-0.8%	nt	-27%	26%
CSc1nc(C)c2c(n1)N(c1ccc(C(C)C)cc1)CC2	4.4%	2	26%	-14%
C[C@H](NC(=O)c1ccccc1)C(=O)OCC(=O)Nc1sccc1C(N)=O	-1.6%	nt	11%	nt
BrC(/C=C\c1ccccc1)=N/Nc1nc(N2CCOCC2)nc(N2CCOCC2)n1	0.4%	0	?	8%
CC(=O)c1cccc(NC(=S)NCCCCc2ccccc2)c1	0.7%	-20	-10%	0%
COc1ccccc1N1C(=O)CC(Sc2n[nH]c(-c3cccc(C)c3)n2)C1=O (configuration not stated)	0.2%	-4	11%	-3%
Cc1ccccc1N(CC(=O)NC1CCCC1)C(=O)C1(C)CC(=O)N=C2C=CC(Cl)=CN21 (configuration not stated)	0.7%	nt	0%	0%
COc1ccccc1NC(=S)N1CCN(c2cccc(C)c2C)CC1	2.2%	nt	-2%	8%
CCc1ccccc1NC(=O)c1ccccc1N1C(=O)C2C3C=CC(C3)C2C1=O (configuration not stated)	-0.6%	nt	4%	3%
O=C(c1ccccc1F)N1CCN(c2cccc(C(F)(F)F)c2)CC1	1.7%	0	2%	-4%
C#CCN1C(=O)C(O)(CC(=O)c2cccc(OC)c2)c2ccccc21 (configuration not stated)	-5.1%	-2	-12%	17%
COc1ccc(OCCOC(=O)CCS(=O)(=O)c2ccc(C)cc2)cc1	3.3%	nt	20%	nt
COCCCNC(=O)CCS(=O)(=O)Cc1ccc(C)cc1	0.8%	10	22%	-1%
O=C(NCc1ccco1)c1ccc(COc2cc(Cl)ccc2Cl)cc1	0.0%	-3	6%	-39%
O=C(O)C[C@@H](CNC(=O)COc1ccc2ccc(=O)oc2c1)c1ccc(Cl)cc1	0.1%	nt	0%	-3%
COc1cc(C(=O)N2CCC(C(N)=O)CC2)ccc1OCc1c(C)noc1C	0.9%	nt	4%	nt
CCCCOc1ccc(C(O)C(CN2CCCCC2)c2ccccc2)cc1 (configuration not stated)	-0.5%	-7	-14%	10%
Cc1c(NCc2cccnc2)cccc1C(=O)O	1.1%	nt	-12%	-1%
Cc1cccc(C)c1Nc1nnc(SCc2nc3ccccc3s2)s1	?	0	-13%	-75%
CCOc1ccc(C(=O)Nc2nnc(SCC(=O)NCC3CCCO3)s2)cc1 (configuration not stated)	-0.1%	nt	2%	-3%
CCC1Oc2ccc(C)cc2N(CC(=O)NCc2cc(OC)ccc2OC)C1=O (configuration not stated)	-0.8%	7	0%	-3%
CCOC(=O)C1=C(CSc2nccn2C)NC(=O)NC1c1ccc2c(c1)OCO2 (configuration not stated)	-0.7%	-2	-5%	-3%
COc1ccccc1C(=O)COC(=O)CN1C(=O)NC2(CCCC2)C1=O	7.9%	nt	-7%	nt
CCC1Nc2ncnc(N3CCOCC3)c2N(Cc2ccc(C)cc2)C1=O (configuration not stated)	2.0%	nt	-16%	nt
CSc1ccccc1C(=O)OCC(=O)Nc1ccc(N2CCOCC2)cc1	-1.3%	nt	-4%	nt
Cc1c(-c2ncn[nH]2)sc(C#N)c1-c1ccccc1	-3.1%	3	7%	-21%
CC(O)CNCCCOc1ccccc1OCc1ccccc1 (configuration not stated)	1.3%	-7	8%	-2%
Clc1cccc(OCCCCCN2CCOCC2)c1	-1.5%	nt	-14%	-6%
CCOC(=O)c1ccc(S(=O)(=O)N2CCN(S(=O)(=O)CC)CC2)cc1	-1.3%	-1	41%	-3%
NC(=O)CC(NC(=O)Cc1ccc(Cl)cc1)c1ccc(NC2CCN(Cc3ccccc3)CC2)c([N+](=O)[O-])c1 (configuration not stated)	0.5%	nt	7%	-2%
CCSc1ccccc1C(=O)NC1CCCCC1	-1.2%	3	4%	-1%

Further records follow:
SMILES	Rango complex inh	GLA inh pH 4.5	Rango release inh	miR-21 reporter
CCc1ccc2[nH]c(=O)c(CN(Cc3ccc4c(c3)OCO4)C(=O)c3ccco3)cc2c1	?	-1	?	-2%
S=C(NCCc1ccccc1)NCCN1CCOCC1	4.7%	nt	0%	-17%
CCOC(=O)C1=C(C(F)(F)F)Nc2ncnn2C1c1cc(OC)c(OC)cc1OC (configuration not stated)	0.9%	-7	32%	1%
O=C(Cc1ccccc1[N+](=O)[O-])NCCC1=CCCCC1	-0.5%	4	-17%	-29%
COc1ccc(-n2c(Cc3cccn3C)nnc2SCC(=O)N2CCCC2)cc1	-1.8%	5	-6%	-10%
CCCn1c(SCC(=O)NC23CC4CC(CC(C4)C2)C3)n[nH]c1=O	-4.7%	0	-10%	-22%
Cc1ccc2c(c1)nc(NCCCO)n2C	0.0%	6	0%	-11%
CNC(=O)COc1ccc(S(=O)(=O)Nc2ccccc2)cc1	-1.4%	4	3%	2%
COc1cc(OC)c(N(C)C(=O)c2cc3c(s2)-c2ccccc2S(=O)(=O)C3)cc1Cl	-6.1%	nt	-28%	nt
Cc1nc2ccc(NC(=O)Cc3cccs3)cc2s1	-2.2%	11	4%	-36%

Reformatted field by field: entries from further up
CCOC(=O)c1ccc(S(=O)(=O)N2CCN(S(=O)(=O)CC)CC2)cc1
  Rango complex inh = -1.3%	GLA inh pH 4.5 = -1	Rango release inh = 41%	miR-21 reporter = -3%

COc1ccccc1N1CCN(CC(O)COc2ccc(C)cc2C)CC1 (configuration not stated)
  Rango complex inh = 0.5%	GLA inh pH 4.5 = nt	Rango release inh = -11%	miR-21 reporter = 1%

Cc1ccc2c(c1)nc(NCCCO)n2C
  Rango complex inh = 0.0%	GLA inh pH 4.5 = 6	Rango release inh = 0%	miR-21 reporter = -11%

(further entries)
SMILES	Rango complex inh	GLA inh pH 4.5	Rango release inh	miR-21 reporter
CC1=CC(C)C2COC(c3ccc[n+](C)c3)C1C2C (configuration not stated)	0.2%	4	4%	-2%
O=C(NNC(=O)c1ccccc1Cl)c1ccncc1	0.1%	-9	3%	-7%
Cc1ccc(C)c(S(=O)(=O)ON2C(=O)c3ccccc3C2=O)c1	?	-5	1%	-2%
CC(=O)c1nnn(-c2ccc([N+](=O)[O-])cc2C)c1C	2.4%	-4	0%	-4%
COc1ccc(N(CC(=O)Nc2ccc(F)cc2F)S(=O)(=O)c2c(C)nn(C)c2C)cc1	4.1%	nt	10%	1%
O=C1c2ccccc2C(=O)N1OS(=O)(=O)c1ccc(F)cc1	4.5%	nt	-1%	-3%
O=C(NC(=S)Nc1ccccc1N1CCOCC1)c1cccs1	-1.1%	-12	-17%	-2%
CCCc1cc(C(=O)OC)c(NC(=O)CCC(=O)O)s1	-0.3%	5	-25%	-2%
CCCCC(NC(=O)Cc1c(C)c2cc3c(C)c(C)oc3c(C)c2oc1=O)C(=O)O (configuration not stated)	?	nt	-26%	-5%
CCOC(=O)C(CC)/C(C)=N\NC(=O)CCC(=O)Nc1ccc(Cl)cc1Cl (configuration not stated)	0.5%	-2	-10%	4%
COc1ccc(C(=O)NC(Cn2ccnc2)C(C)(C)C)cc1OC1CCN(C(C)C)CC1 (configuration not stated)	-1.6%	nt	-1%	-4%
Cc1ccc(NS(=O)(=O)c2ccc(OCC(=O)NCc3ccccn3)cc2)cc1	-0.2%	nt	-8%	nt
Cc1nn(-c2ccc(C(=O)Nc3nnc(C4CC4)s3)cc2)c(C)c1Cl	1.6%	3	3%	-6%
Cc1ccc(CN2CCN(CCCn3cccn3)CC2CCO)cc1 (configuration not stated)	1.7%	-2	1%	1%
Cc1sc2nc(CN3CCOCC3)nc(NCCc3ccccc3)c2c1C	-1.6%	5	7%	12%
Cc1nc(SCC(=O)NCC2CCCO2)nc(C)c1C (configuration not stated)	-2.7%	nt	-3%	nt
COc1ccc(OC)c(NC(=O)Cc2cccs2)c1	-2.7%	nt	-13%	-6%
N#Cc1c(-n2cccc2)cccc1-n1cccc1	4.7%	17	20%	-24%
CC(C)(C)C(=O)NC1CC2CCCC(C1)N2C(=O)Nc1ccccc1 (configuration not stated)	-0.6%	nt	17%	-1%
O=C(CSc1ccccc1)NCc1ccco1	?	-4	-7%	-22%

Filtered by structure: the compounds so far with a COOH group.
SMILES	Rango complex inh	GLA inh pH 4.5	Rango release inh	miR-21 reporter
O=C(O)c1cccc(NC(=O)c2ccccc2NC(=O)c2ccco2)c1	-1.4%	nt	-6%	0%
O=C(O)C[C@@H](CNC(=O)COc1ccc2ccc(=O)oc2c1)c1ccc(Cl)cc1	0.1%	nt	0%	-3%
Cc1c(NCc2cccnc2)cccc1C(=O)O	1.1%	nt	-12%	-1%
CCCc1cc(C(=O)OC)c(NC(=O)CCC(=O)O)s1	-0.3%	5	-25%	-2%
CCCCC(NC(=O)Cc1c(C)c2cc3c(C)c(C)oc3c(C)c2oc1=O)C(=O)O (configuration not stated)	?	nt	-26%	-5%

The list goes on:
SMILES	Rango complex inh	GLA inh pH 4.5	Rango release inh	miR-21 reporter
Cc1cccc(N2CCN(C(=O)c3noc4c3COc3ccc(C)cc3-4)CC2C)c1 (configuration not stated)	-3.2%	nt	19%	0%&-4%
O=C(N/N=C/c1ccc[nH]1)c1sc2ccccc2c1Cl	-1.8%	5	14%	-3%
CSc1nsc(SCC(=O)N2CCCCC2)n1	-3.4%	-2	11%	-49%
COc1ccc(C(=O)OCC(=O)NCC2CCCCC2)cc1S(=O)(=O)N1CCCc2ccccc21	-2.8%	-6	1%	-4%
CCN1CCN(C(=O)N(CC(=O)Nc2ccc(C(N)=O)cc2)S(=O)(=O)c2ccc(C)cc2)CC1	3.2%	nt	-12%	nt
CN1C(=O)N(c2nnc(C(C)(C)C)s2)C(=O)C1c1ccccc1 (configuration not stated)	2.2%	5	7%	-4%
Cc1ccc(N(CC(=O)O)S(=O)(=O)c2cccc3nonc23)cc1	-0.6%	2	-9%	-1%
Cc1cc2c(c(=O)o1)C1(C(=O)N(CC(=O)O)c3ccccc31)C(C#N)=C(N)O2 (configuration not stated)	?	5	15µM*	0%
CCOc1ccc(C(CC(=O)O)NC(=O)c2cccs2)cc1OC (configuration not stated)	1.3%	6	-4%	-1%
